Sa growth 42C: S. aureus growth inhibition; 0.53% of 170,000 active; S. aureus RN4220 growth, OD600, 20 h, 42 °C; hits give low values; relative growth, % (concentration not given with the values);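 active = growth at 42 °C up to 50% and 20 or more points under that at 30 °C, or under 10% at both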;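 also: 300 nL library stock went into each well; scaled to the means of positive and negative controls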
GIV Gai3 FP: blocks GIV peptide binding to rat Galpha-i3. P08753. Galpha-i3/FITC-GIV peptide fluorescence polarization, 90 min; hits give low values; scaled: aluminum fluoride 0%, vehicle 100%. percent of control (FP), % (no concentration beside the values). 0.42% of 210,000 active. AID 1224905;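 active = replicate mean at 85% of control or lower, very high polarization wells dropped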;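 also: wells of about 15 µL received 100 nL stock; the first replicate is given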
Target sequence (P08753 whole entry, looked up): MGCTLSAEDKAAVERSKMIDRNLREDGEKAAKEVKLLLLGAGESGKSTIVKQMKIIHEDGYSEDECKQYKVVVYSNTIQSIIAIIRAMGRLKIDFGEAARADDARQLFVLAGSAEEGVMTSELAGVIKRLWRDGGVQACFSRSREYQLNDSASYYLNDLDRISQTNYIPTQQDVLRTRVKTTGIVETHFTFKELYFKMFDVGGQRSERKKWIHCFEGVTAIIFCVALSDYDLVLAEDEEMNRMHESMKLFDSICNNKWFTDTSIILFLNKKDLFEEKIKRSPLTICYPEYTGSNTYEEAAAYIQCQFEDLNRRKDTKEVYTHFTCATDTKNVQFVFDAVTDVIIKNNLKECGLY
HCMV NEC inh: inhibitors of HCMV UL50-UL53 nuclear egress complex interaction. HTRF UL50-UL53 interaction, normalized percent inhibition. 0.15% of 190,000 active. inhibition, % (concentration not given with the values);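 active = both replicates at 50% or more, plus weaker picks with an unusually low signal ratio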;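 also: stock transfer was 100 nL into about 20 µL; 0% = negative control wells and 100% = wells with untagged competitor protein; inactives centre near -12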
Sa growth 42C second temp: second read-out of Sa growth 42C, no call of its own (marks repeat the call); relative growth, %; measured here: growth at 30 °C;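 optical density after 20 h as mean of two plates; 100% = untreated growth and lower means inhibition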
* marks the source's active call; other numbers are inactive results; x = not tested or not shown.

Structure	Sa growth 42C	Sa growth 42C second temp	GIV Gai3 FP	HCMV NEC inh
O=C(/C=C/c1ccccc1)OCc1cncs1	x	x	102	-58
Cc1cc(Br)ccc1NC(=O)CN1C(=O)c2cccnc2Sc2ccccc21	110	82	106	-25
O=C(/C=C/c1ccco1)N(Cc1ccccc1)c1ccccc1	101	91	x	-36
Cc1nc2nc(CNC(=O)OC(C)(C)C)nn2c(C)c1CCC(=O)Nc1ccc(F)cc1	101	89	103	x
C=CC[n+]1cccnc1N	107	97	x	4
Cc1nc2ncnn2c(C)c1CCC(=O)NCc1cccc(Cl)c1	98	91	104	-35
Cc1nc2ccc(NC(=O)C3CCCCC3)cc2c(=O)n1Cc1ccccc1	116	62	96	-2
COCCCNc1nc2c(S(=O)(=O)c3ccc(C)c(C)c3)nnn2c2ccc(Cl)cc12	91	78	118	12
CC/C(=N\NC(=O)c1ccc(N)cc1)c1ccc(Cl)cc1	111	89	x	-6
COC(=O)C(C)Sc1ccc2nnc(CCNS(=O)(=O)c3ccc(C)cc3)n2n1 (stereo not drawn)	105	93	110	x
CCOC(=O)c1cc(-c2ccccc2)n(CC(=O)NC2CCC(C)CC2)c1C (stereo not drawn)	98	85	102	x
Cc1cc2occ(CC(=O)OCc3cc(=O)n4c(n3)sc3ccccc34)c2cc1C	99	95	x	-31
OCc1cncn1Cc1ccccc1	105	83	99	-16
O=S(=O)(NC1c2ccccc2Oc2ccccc21)c1cccs1	92	88	x	0
CSc1nnc(CNC(=O)c2ccc(C(C)C)cc2)n1C(C)C	102	85	98	1
O=C(O)c1c(-n2cccc2)sc2c1CCSC2	60	85	x	-30
O=C(Cc1csc(-c2ccsc2)n1)Nc1cccc(C(=O)NC2CC2)c1	98	87	x	7
O=C(OCc1ccccc1)N1CCOCCOCCOCC1	98	78	106	17
COCC(C)n1cccc1 (stereo not drawn)	83	94	x	-19
CCN1C(=O)c2ccccc2S(=O)(=O)c2ccc(C(=O)N3CCN(c4ccccc4)CC3)cc21	x	x	100	-15
CCCOc1ccc(CSC(=N)N)cc1Br	115	75	100	-10
CCOc1ccc(S(=O)(=O)c2cn(CC)c3ccc(F)cc3c2=O)cc1	101	82	108	-16
CCOC(=O)CN1C(=O)C(O)(CC(=O)c2cc(OC)ccc2OC)c2ccccc21 (stereo not drawn)	101	102	99	2
CCOC(=O)N1CCC(NCC2C(Oc3ccc(Cl)cc3)C(=O)N2c2ccccc2C)CC1 (stereo not drawn)	69	40	107	1
CC1(C)CC2CC(C)(CN2C(=O)c2cccs2)C1 (stereo not drawn)	106	84	101	-33
O=C(NC(=O)c1c(Cl)cccc1Cl)Nc1nc2cc(F)ccc2s1	94	77	101	-12
CC1CN(CC(=O)Nc2ccc(C#N)cc2)CC(C)O1 (stereo not drawn)	85	97	x	-15
CN1CCN(c2nc3ccccc3nc2C(C#N)S(=O)(=O)c2ccccc2)CC1 (stereo not drawn)	112	89	114	0
COC(=O)C1CCN(c2c(N)n(Cc3ccccc3)c(=O)[nH]c2=O)CC1	99	97	x	-9
CN(C(=O)CCN1C(=O)c2ccccc2C1=O)C1CCCCC1	x	x	101	-32

Next section
Structure	Sa growth 42C	Sa growth 42C second temp	GIV Gai3 FP	HCMV NEC inh
Cc1ccc(C)c(NC(=O)c2ccc(CN3CC(=O)N4CCCCC4C3=O)cc2)c1 (stereo not drawn)	119	99	102	x
Cc1ccc(Oc2nc3c(c(=O)n(Cc4ccccc4Cl)c(=O)n3C)n2C)cc1C	103	90	108	-22
COc1ccc(OC)c(S(=O)(=O)N2CCCC2C(=O)NC(C)c2ccccc2)c1 (stereo not drawn)	75	82	100	5
CCSc1ccccc1C(=O)Nc1ccc(-c2nc3ccccc3s2)c(O)c1	86	91	97	x
O=C(Nc1cccc(C(F)(F)F)c1)C1CC2CCCC(C1)C2=O (stereo not drawn)	96	93	x	-37
Cc1ccc(Sc2c(N)c3c(c(N)c2Sc2ccc(C)cc2)C(=O)c2ccccc2C3=O)cc1	x	x	103	-13
COc1cc(NC(=O)CCc2c(C)nc3c4c(C)cc(C)nc4nn3c2C)cc(OC)c1	110	89	94	-50
Cc1ccc(C(=O)Nn2cnc3scc(-c4cccs4)c3c2=O)c(O)c1	108	87	x	-27
COC(=O)c1ccc(NC(=O)Cn2ccn3nc(-c4ccc5c(c4)OCO5)cc3c2=O)cc1	x	x	99	-10
COc1ccc(N2CC(C(=O)Nc3ccc(NC(C)=O)cc3)CC2=O)cc1 (stereo not drawn)	79	83	101	-61
Cc1cc(Br)cc2c(N=NC(N)=O)c(O)n(C)c12	91	76	102	-50
COc1ccc(NC(=O)Cn2cc(C#N)c3ccccc32)cc1	100	84	104	-6
O=C(Nc1ccc2c(c1)OCO2)c1cccn(OCc2ccccc2F)c1=O	103	95	98	-1
CCOC(=O)c1ccc(-c2ccc(/C=C3\SC(=NC)N(C)C3=O)o2)cc1	x	x	105	-20
NC(=O)NC(=O)CSC1CCCC1	84	92	x	-15
Cc1ccc(Cc2nc3ccccc3nc2SCC(=O)NCc2ccccc2Cl)cc1	109	104	102	x
O=C(Cn1ncc2c([nH]c3ccccc32)c1=O)NCCCN1CCN(c2ccc(F)cc2)CC1	129	78	108	x
O=C(O)CSc1ccc(-c2ccccc2)nn1	106	87	96	-7
CCOc1ccccc1CN(CCc1ccc2c(c1)OCO2)Cc1ccccn1	92	76	103	-16
Cc1cc(Nc2ccc(Cl)cc2)n(-c2ccccc2)n1	113	98	x	-30
COc1ccc(-c2c(C)oc3ccc(C)cc23)cc1	104	80	x	-15
Cc1ccc2cc(C(N)=O)c(=N)oc2c1	112	99	108	x
O=C(C1CCCN(S(=O)(=O)c2cccs2)C1)N1CCN(c2cccc(Cl)c2)CC1 (stereo not drawn)	107	94	104	-10
Cc1ccc(NC(=O)CCS(=O)(=O)c2cccc3nonc23)c(C)c1	99	96	101	x
O=C(CCCCCn1c(=O)[nH]c2ccccc2c1=O)NCc1cccc(Cl)c1	115	86	97	x
COc1cc(NS(=O)(=O)c2ccc(NC(=O)C(C)Oc3ccc(Cl)cc3Cl)cc2)nc(OC)n1 (stereo not drawn)	88	50	109	-22
Cc1cccc(-n2nnc(-c3nc(-c4cccs4)no3)c2N)c1C	101	104	107	x
CCOc1ccc(C(c2c(O)cc(C)n(CCOC)c2=O)N2CCN(c3ccc(F)cc3)CC2)cc1 (stereo not drawn)	78	88	99	x
COc1ccc(C(=O)N2CC(=O)Nc3ccccc32)cc1	111	96	109	-23
CC(=NCCN1CCOCC1)C1=C(O)c2ccccc2C1=O	82	102	110	-57

Rewritten with each value named: entries from further up.
> COC(=O)c1ccc(NC(=O)Cn2ccn3nc(-c4ccc5c(c4)OCO5)cc3c2=O)cc1
- Sa growth 42C = x
- Sa growth 42C second temp = x
- GIV Gai3 FP = 99
- HCMV NEC inh = -10
> COc1ccc(C(=O)N2CC(=O)Nc3ccccc32)cc1
- Sa growth 42C = 111
- Sa growth 42C second temp = 96
- GIV Gai3 FP = 109
- HCMV NEC inh = -23

Further entries follow.
Structure	Sa growth 42C	Sa growth 42C second temp	GIV Gai3 FP	HCMV NEC inh
CCS(=O)(=O)N1CC(=O)N(c2cccc(C)c2C)C(C)(C(=O)NC2CCCCCC2)C1 (stereo not drawn)	116	99	103	x
Cc1ccc(-n2c(=O)c3sc4ccccc4c3n(CC(=O)NC3CCCC3)c2=O)cc1C	101	90	105	-13
Cc1cccc(N2CCN(C(=O)C3CCN(S(=O)(=O)c4c(C)noc4C)CC3)CC2C)c1 (stereo not drawn)	114	81	106	-15
O=c1c2ccccc2ncn1CCOc1ccc(CO)cc1	86	100	101	-38
COC(=O)c1ccc(NC(=O)c2sc3nc(C)cc(=O)n3c2C(=O)Nc2ccc(Cl)cc2)cc1	x	x	103	-6
Cc1ccccc1Nc1c(-c2ccc(N(C)C)cc2)nc2ccccn12	109	89	107	-14
CCN(CC)CCOC(=O)c1ccc(NC(=O)c2nn(C)c3c2COc2ccccc2-3)cc1	117	101	100	-8
Cc1c(NC(=O)CCCN2C(=O)/C(=C\c3ccco3)SC2=S)c(=O)n(-c2ccccc2)n1C	102	72	115	-119
O=S(=O)(Cc1ccccc1)Nc1nc2ccccc2s1	88	100	x	8
CCOC(=O)C1CCN(S(=O)(=O)Cc2ccc(Cl)cc2)CC1	105	98	105	0
O=C(C1CC1)N1CCc2sccc2C1c1ccc(Cl)cc1 (stereo not drawn)	81	62	100	-3
CCOC(=O)c1c(NC(=O)/C(C#N)=C/c2ccccc2)sc2c1CCC2	94	87	107	-29
Cc1ccc(NC(=O)c2c(-n3c(C)cc(C=NO)c3C)sc3c2CCCC3)cc1	93	97	98	5
COC(=O)c1ccc2c(=O)n(CC3CCCO3)c(SCC(=O)Nc3ccc(C)c(Cl)c3)nc2c1 (stereo not drawn)	82	85	103	-2
CCOC(=O)C1=C(C)NC(=O)C1CC(=O)O (stereo not drawn)	90	90	100	-1
OCCN(C=NC1=NN(c2ccccc2)CC1)CCO	104	71	x	-12
Cn1c(=O)c2ccccc2n(CC(=O)Nc2ccc3c(c2)OCO3)c1=O	104	81	99	-10
O=C(NCCCN1CCN(c2ccccc2F)CC1)C1CCC(=O)N1C1CCCC1 (stereo not drawn)	103	83	103	1
COc1ccc(OC)c(S(=O)(=O)NCCc2csc(-c3cccc(F)c3)n2)c1	113	98	108	x
C(=C\c1ccccc1)/CSc1nc2ccccc2o1	101	102	99	-2
O=c1[nH]ncc(N2CCCC2)c1Cl	90	80	104	-15
CCc1ccc(CN2C(=O)c3ccccc3C2C(=O)NCCc2ccc(OC)c(OC)c2)cc1 (stereo not drawn)	123	85	101	x
CCC(CC)C(=O)OCc1ccc(C#N)cc1	105	95	x	4
CC1CC(C)CN(S(=O)(=O)c2ccc(C(=O)Nc3nc4ccc(Br)cc4s3)cc2)C1 (stereo not drawn)	x	x	102	-10
Cc1ccc(-n2c(SCC(=O)c3cn(CCC#N)c4ccccc34)nnc2-c2ccccc2)cc1C	98	94	x	-4
O=S1(=O)CCN2C=CSC2=N1	120	96	x	16
CC1CN(C(C)(C)C)CCC1(O)c1ccccc1 (stereo not drawn)	91	88	103	4
CSc1nnc2n1CCCN2	95	92	102	38
O=C(CSc1cn(CC(=O)N2CCCCC2)c2ccccc12)NCc1ccccc1Cl	118	90	104	x
Cc1cccc(Oc2cc(C)nc3ccc(C)cc23)c1	111	83	x	-9

Carrying on:
Structure	Sa growth 42C	Sa growth 42C second temp	GIV Gai3 FP	HCMV NEC inh
COc1cccc(Cn2c(=O)n(-c3cccc(Cl)c3)c(=O)c3c4c(sc32)CN(C(C)=O)CC4)c1	103	66	108	8
CCN1CCN(c2ncc3c(n2)CCN(Cc2ccc(OC(C)C)cc2)C3)CC1	94	94	104	x
CCCCOc1ccc(-c2cc3c(SCC(C)C)nccn3n2)cc1	x	x	106	2
CCOc1ccc(C2C3=C(CC(c4ccc(OC)c(OC)c4)CC3=O)Nc3onc(C)c32)cc1 (stereo not drawn)	x	x	115	4
COc1cccc(C2=NS(=O)(=O)N(C)C(C(=O)NCCN3CCOCC3)=C2)c1	94	90	108	-59
O=C(CCc1ccccc1)N1CCCN(C(=O)CCc2ccccc2)CC1	108	85	96	x
c1ccc2sc(NC3=NCN(C4CCCCCC4)CN3)nc2c1	103	90	104	x
Cc1cc(C)c2c(N)c(C(=O)NCc3ccc(Cl)cc3)sc2n1	x	x	100	-58
COC(=O)c1[nH]c(CN2NS(=O)(=O)c3ccccc3C2=O)c(C(=O)OC)c1C	100	89	x	-24
CCS(=O)(=O)c1ncc(Cl)c(C(=O)Nc2ccc(S(=O)(=O)N(C)c3ccccc3)cc2)n1	89	66	103	-21
CCOC(=O)c1[nH]c(C)c(CCC(=O)NCc2ccccc2Cl)c1C	114	91	105	x
CC(C)[C@H](NC(=O)c1ccco1)C(=O)NC1CC1	102	92	x	-17
Cc1ccc(-c2nnc(Nc3cccc(Br)c3)c3ccccc23)cc1S(=O)(=O)NCC1CCCO1 (stereo not drawn)	129	102	105	-15
COc1cc(NC(=O)CCc2c(C)nc3c(-c4ccc(F)cc4)c(C)nn3c2C)cc(OC)c1OC	98	86	103	10
Cc1ccccc1N1CC(O)=C(c2nc3ccccc3n2C)C1=N	x	x	104	4
CC(C)NC(=O)c1ccc(CSc2nc3cccnc3n2Cc2ccccc2)cc1	x	x	103	-16

Compounds above that have a tert-butyl group (two):
Structure	Sa growth 42C	Sa growth 42C second temp	GIV Gai3 FP	HCMV NEC inh
Cc1nc2nc(CNC(=O)OC(C)(C)C)nn2c(C)c1CCC(=O)Nc1ccc(F)cc1	101	89	103	x
CC1CN(C(C)(C)C)CCC1(O)c1ccccc1 (stereo not drawn)	91	88	103	4

Record cards, as listed above:
Record of CCCCOc1ccc(-c2cc3c(SCC(C)C)nccn3n2)cc1 : Sa growth 42C = x; Sa growth 42C second temp = x; GIV Gai3 FP = 106; HCMV NEC inh = 2
Record of COc1cc(NC(=O)CCc2c(C)nc3c(-c4ccc(F)cc4)c(C)nn3c2C)cc(OC)c1OC : Sa growth 42C = 98; Sa growth 42C second temp = 86; GIV Gai3 FP = 103; HCMV NEC inh = 10

Bioassay records as filed in PubChem BioAssay.
